UUG fidelity: yeast start codon fidelity modulation | S. cerevisiae UUG-firefly luciferase reporter, luminescence/redox ratio | actives 0.13% (n = 350,000) | activity score, % at 18.7 µM | AID 602363;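 active means replicate mean at a twofold rise or more, about +100% in these data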;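 further: firefly luciferase made from a UUG start codon reports start codon fidelity; reporter light over untreated wells divided by growth signal over untreated wells; some hits fall short of that in this replicate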
Env fusion inh: blocks HIV Env-driven cell-cell fusion. HeLa-JRFL Env/CEM21 cell fusion, luciferase. inhibition, % at 12.3 µM. actives 1.1% (n = 360,000). AID 651610;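 active means mean replicate inhibition score of at least 50 and every replicate individually at or above 50; inconclusive means only one of the two criteria met; inactive means mean below 50 and not all replicates reaching 50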;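 further: 0% = plate neutral controls and 100% = maraviroc near 300 nM; one replicate is shown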
CSC inhib: cancer stem cell inhibition; AID 2717; cancer stem cell-like cells viability, luminescence; inhibition, % at 7.5 µM; actives 1.1% (n = 300,000);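 active means mean at 75% or more and at least half the replicates too; inconclusive means mean and replicates disagree; tested in HMLE shEcad cells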;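 further: 0% = median of negative and 100% = median of positive control wells; the first replicate is given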
PABP FP inh: PABP-poly(A) binding inhibition; P11940; PABP-poly(A) RNA binding, fluorescence polarization; inhibition, % at 35 µM; actives 1% (n = 290,000);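 active means 50% or more with normal probe brightness, or confirmed in later tests; inconclusive means above 50% with abnormal brightness, or retests that disagree; inactive means below 50% or failed in later tests; about a fifth of its hits are not listed in these tables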;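 further: calls also rest on retests at 20 µM and on dose response follow-up; controls were probe without protein and protein plus probe with vehicle; some compounds called inactive have numbers as strong as hits; many hits fall short of the cut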
Rce1 inhib: blocks yeast Ras-converting enzyme | Q03530 | yeast membranes, quenched prenylated peptide cleavage fluorescence | calls only | actives 0.27% (n = 290,000) | AID 2563;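 active means fall in fluorescence gain of 50% or more versus controls, with final raw signal at or below 3038400; inconclusive means same 50% fall but final raw signal above 3038400; inactive means fall in fluorescence gain under 50%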;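 further: plate controls were neutral control wells for no effect and wells lacking membranes for full effect; tested at 10 µM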
Target sequence (Q03530 whole entry, looked up): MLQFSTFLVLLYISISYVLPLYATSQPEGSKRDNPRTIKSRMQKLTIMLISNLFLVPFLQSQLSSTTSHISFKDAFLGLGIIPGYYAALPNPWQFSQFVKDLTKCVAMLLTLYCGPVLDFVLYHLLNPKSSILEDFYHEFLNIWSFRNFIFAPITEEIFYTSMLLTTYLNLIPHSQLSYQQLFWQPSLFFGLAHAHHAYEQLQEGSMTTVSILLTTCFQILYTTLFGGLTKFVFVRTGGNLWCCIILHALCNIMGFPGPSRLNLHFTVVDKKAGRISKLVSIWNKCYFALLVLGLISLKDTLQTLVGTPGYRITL
MT1-MMP act inh: inhibitors of human MT1-MMP activation. P50281. HT1080 RFP-PRO-GFP cells, GFP/RFP ratio fluorescence, overnight; percent of plate control window, DMSO zero. GFP/RFP ratio change, % at 20 µM. actives 0.061% (n = 360,000). AID 651647;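 active means GFP/RFP ratio change of at least 30% with cell ATP level not reduced by more than half and red fluorescence within 50% of control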; further: strong numbers were not always called active
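system = RFP-PRO-GFP reporter HT1080 cells | dosing = 20 µM single dose, 1% DMSO | timing = overnight cell settling, then overnight compound exposure, 37 °C, 5% CO2 | read-out basis = GFP/RFP fluorescence ratio | controls = DMSO and RFP-L50D-GFP cell wells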
eIF4H inh: inhibitors of RNA binding by human eIF4H; eIF4H fluorescence polarization binding assay; inhibition, % at 35 µM; Q15056; AID 2012; actives 0.94% (n = 290,000);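 active means 50% or more with normal probe brightness, or confirmed in later tests; inconclusive means above 50% with abnormal brightness, or retests that disagree; inactive means below 50% or failed in later tests; about a fifth of its hits are not listed in these tables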;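 further: calls also rest on retests at 20 µM and on dose response follow-up; 0% = protein and probe with vehicle and 100% = probe without protein; strong numbers were not always called active; many hits fall short of the cut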
MT1-MMP act inh RFP: further read-out of MT1-MMP act inh, marked with its call; RFP signal change, %; measured here: RFP expression control read;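 0 = vehicle wells; hits needed this value within 50% of zero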
* hit, by the source's call; i = inactive; u = inconclusive; x = not tested or not shown. A portion of the library, so the mix of outcomes need not match the whole.

SMILES	Env fusion inh	Rce1 inhib	MT1-MMP act inh RFP	eIF4H inh	CSC inhib	PABP FP inh	MT1-MMP act inh	UUG fidelity
O=[N+]([O-])c1cccc(-c2cc(C(F)(F)F)n3nc(-c4ccccc4)cc3n2)c1	-6	i	1	-5	11	5	2	-13
Nc1n[nH]c(N)c1N=Nc1ccc(Cl)cc1	9	i	-5	-8	-11	3	2	-7
O=C(NC1CCCCC1)[C@@H]1CSC2c3ccccc3C(=O)N21 (stereo not given in full)	-2	i	0	-15	-1	1	-6	-9
O=C(O)CSc1nccn1-c1cccc(Cl)c1	x	i	4	-5	0	11	2	-10
Cn1nc(CC(=O)Nc2ncc(Br)s2)c2ccccc2c1=O	x	i	-24	-7	20	6	2	-20
CSc1ccccc1C(=O)Nc1ccc2c(c1)OCCO2	x	i	0	-3	13	0	0	-1
CN1CCN(/N=C2/C(=O)Nc3ccc([N+](=O)[O-])cc32)CC1	1	i	6	-4	0	-1	3	x
Cn1cnnc1SCC(=O)NC1CC1	-11	x	3	x	-13	x	3	-12
CCN(Cc1ccccc1)C(=O)c1ccc(C)c(S(=O)(=O)N2CCCCC2)c1	x	x	-7	x	6	x	1	-8
O=C(CN1C(=O)C(=O)c2ccccc21)NC1CCCCC1	-26	i	6	1	8	0	-8	6
Cc1ccc(NS(=O)(=O)c2c(C(=O)N3CCOCC3)c(C)n(C)c2C)cc1C	0	i	3	-14	-8	10	0	-3
COC(=O)c1ccc(CSc2nc(C(F)F)cc(C)c2C#N)o1	14	i	-9	x	-8	x	-3	1
CC(C)CCn1cnc2c([nH]c3cccc(Cl)c32)c1=O	x	x	-3	-4	-8	0	-3	-14
CC(C)C[C@H]1CN=C(Nc2ccccc2)N1CC(C)C	23	x	2	x	-11	x	0	-5
O=C(CSc1nccn1-c1ccccc1)NCc1ccc(F)cc1	-8	i	-5	-1	-19	4	-2	-25
COc1ccc(C)cc1NS(=O)(=O)c1cccc2nonc12	-20	i	4	-1	14	7	4	-1
Cc1cc(C)n2nc(SCC(=O)NCc3ccco3)nc2n1	-24	i	0	5	-9	4	-5	-24
Cc1nccn1CC(=O)c1ccc(O)c(O)c1	9	x	5	x	3	x	-1	27
CCCCN(CCCC)CCCNC(=O)C1CC(c2cc(C(F)(F)F)cc(C(F)(F)F)c2)=NO1 (stereo not given)	-20	i	0	x	x	x	2	-11
O=C(NCc1ccc(F)cc1)c1cc(C2CCCN(S(=O)(=O)c3ccccc3)C2)on1 (stereo not given)	-10	x	-10	x	x	x	-4	-13
Cc1cc(C=O)c(C)n1-c1ccc(NC2CCCC2)c([N+](=O)[O-])c1	21	i	-11	x	12	x	0	-11
COc1ccc2oc(C(=O)CCC(=O)O)c(N)c2c1	x	i	7	-2	-5	8	-2	-15
Cc1ccc(NC(=O)C2(C)CCCN(C(C)C)C2)cc1C (stereo not given)	-5	x	9	x	x	x	3	3
CC(=O)Nc1ccc(S(=O)(=O)Nc2ccccc2C(=O)N2CCOCC2)cc1	6	i	2	-14	-9	0	0	-10
Oc1ccccc1C1CC(c2cccs2)=NC(c2ccc(Cl)cc2)N1 (stereo not given)	40	i	-31	-3	-4	0	-27	x
COc1cc2cc(CN(CCc3cccc(C)c3)C(=S)NCCCN(C)C)c(=O)[nH]c2cc1OC	-25	i	-3	-6	6	-8	-3	x
CCOCCCNCC(=O)Nc1ccccc1N1CCOCC1	-6	x	2	1	12	20	8	-13
CN1CCN(c2ccccc2NC(=O)c2ccc(F)cc2)CC1	22	i	-2	-8	-5	0	-1	x
CC(C)(C)c1ccccc1NC(=O)c1ccco1	4	i	3	-7	0	-1	1	2
CCCCNC(=O)N1CCN(Cc2ccc(F)cc2)CC1	16	x	4	-7	6	1	1	x
O=C(CCc1nnc(CCCCc2ccccc2)o1)N1CCCCC1CCO (stereo not given)	-4	i	-1	-3	-3	9	0	8
Cc1cc(C)nc(Nc2nc(-c3ccccc3)cs2)n1	i	i	2	-12	7	-12	1	-66
CC(C)(C)n1nnnc1C(c1ccccc1OC(F)(F)F)N1CCN(C/C=C/c2ccccc2)CC1 (stereo not given)	11	x	-8	x	x	x	-9	1
CN(C(=O)Cc1ccccc1)n1cnnc1	-15	i	0	0	2	-7	-2	2
O=C(Cc1ccccc1)NCC(=O)N/N=C/c1ccc(Cl)cc1	18	i	2	2	0	-4	-2	x
O=C(c1ccc(S(=O)(=O)N2CCOCC2)cc1)N1CCN(C2=NS(=O)(=O)c3ccccc32)CC1	x	i	10	-4	x	1	0	-2
O=C(COC(=O)C1CC(=O)N(c2ccc3c(c2)OCCO3)C1)Nc1ccc2c(c1)CCC2 (stereo not given)	x	i	9	-4	-3	2	7	0
COC(=O)CSC1=C(C#N)C(c2ccc(C(C)C)cc2)CC(=O)N1 (stereo not given)	-7	i	-3	-11	2	-5	2	-30
COc1ccc(NS(=O)(=O)c2ccc(C)c(C(=O)NCCCn3ccnc3)c2)cc1	5	x	7	x	x	x	1	-26
COc1ccc(C(=O)NCC(=O)OCC(=O)Nc2cc([N+](=O)[O-])ccc2F)cc1	-3	i	5	6	-6	4	2	-15
CCCn1c(-c2cccc([N+](=O)[O-])c2)nc2c1c(=O)[nH]c(=O)n2Cc1ccccc1	9	i	-4	14	1	-20	1	7
COc1ccc(C(=O)CC(=O)C(=O)Nc2ccc(C)c(Cl)c2)cc1	3	i	3	9	0	16	-1	-9
CN1CCN(CC(=O)Nc2c(C(=O)c3ccccc3)oc3ccccc23)CC1	5	i	-7	8	x	18	-12	-5
COCCCC1CCN(C(=O)C2CCC(=O)N(CC3CCCCC3)C2)CC1 (stereo not given)	-1	i	-5	-14	-16	-19	3	-12
CCOC(=O)C(/C(C)=N/NC(=O)c1ccccc1[N+](=O)[O-])C(C)C (stereo not given)	-16	i	2	-3	2	-3	1	-7
COc1ccc(NC(=O)c2ccc3ncsc3c2)c2ccccc12	0	i	0	-4	-4	-2	0	-10
Cc1ccccc1N(CC(=O)N/N=C/c1ccc(Cl)cc1)C(=O)c1ccccc1	-33	i	-6	-1	27	-2	-1	-9
Cc1cccc(C)c1NC(=O)COC(=O)c1ccccc1Nc1ccccc1	8	i	-3	-4	-8	-4	-5	-7
CCCCCOC(=O)Cn1c(SCC(=O)Nc2ccccc2)nc2c1c(=O)[nH]c(=O)n2C	x	i	-8	6	-10	-2	3	-12
Cn1c(=O)c(Nc2ccc(Cl)cc2)c2c3c(cccc31)C(=O)c1ccccc1-2	-4	i	x	u	38	-6	x	x
O=C(OCCNC(=O)c1ccc2ccccc2n1)c1cccnc1	x	i	0	8	-17	1	10	-7
CC1=C(C#N)C(=O)NC1(C)O (stereo not given)	-6	x	0	x	x	x	-4	3
COc1ccc(NC(=O)CN(c2ccc(C)cc2)S(=O)(=O)c2c(C)nn(C)c2C)cc1	-1	i	3	0	-9	0	1	-27
CCOc1ccc2c(=O)c(-c3ccc4c(c3)OCCCO4)c(C)oc2c1	20	i	-4	-9	-9	5	3	x
CCOc1ccc(OCCCCOc2ccccc2C(C)=O)cc1	31	i	-8	1	6	6	-2	x
O=C(Nc1nc(=O)c2ccccc2s1)c1ccc(Cl)cc1	x	i	5	1	4	-21	2	-29
COc1cc2c(cc1OC)C1(CCCC1)CNC2C (stereo not given)	x	i	2	-4	-11	9	-12	-15
Cc1nnc(NC(=O)c2ccc3ccccc3n2)s1	-46	i	-1	5	-5	11	5	-11
COc1cccc(NC(=S)N2CCC(NC(=O)C3CCCCC3)CC2)c1	0	i	1	-2	-8	3	1	1
COc1ccc(C)cc1NC(=O)CSc1nnc(CC(=O)Nc2ccccc2F)n1C	17	i	0	-6	1	1	2	x

Pulled by structure from the entries so far:
SMILES	Env fusion inh	Rce1 inhib	MT1-MMP act inh RFP	eIF4H inh	CSC inhib	PABP FP inh	MT1-MMP act inh	UUG fidelity
COc1ccc(C)cc1NC(=O)CSc1nnc(CC(=O)Nc2ccccc2F)n1C	17	i	0	-6	1	1	2	x
O=C(c1ccc(S(=O)(=O)N2CCOCC2)cc1)N1CCN(C2=NS(=O)(=O)c3ccccc32)CC1	x	i	10	-4	x	1	0	-2

The results go on:
SMILES	Env fusion inh	Rce1 inhib	MT1-MMP act inh RFP	eIF4H inh	CSC inhib	PABP FP inh	MT1-MMP act inh	UUG fidelity
CCCn1c(=O)n(C)c(=O)c2c(SCC(=O)NCc3ccco3)nc(C3CC3)nc21	x	i	-6	12	-10	0	-9	1
COc1cc(N/C=C2\CC(=O)NC(C)=C2C#N)cc(OC)c1OC	1	i	-3	u	-4	-7	-5	x
COc1cccc(CNC(=O)C(=O)NCCC2CCCCN2S(=O)(=O)c2ccc(C)cc2)c1 (stereo not given)	7	i	-13	x	26	x	-5	-28
CCCCc1c(O)nc2ccccn2c1=O	8	i	4	-4	x	-4	-6	x
O=C(Nc1cc(SCCO)cc([N+](=O)[O-])c1)c1ccc(Br)o1	x	i	-8	1	-2	4	4	x
C(=C\c1ccccc1)/CN1CCN(C(CCc2ccccc2)c2nnnn2C2CCCC2)CC1 (stereo not given)	-6	x	-6	x	x	x	-2	-9
Cc1cccc(-n2c(SCC(=O)N(C)C3CCS(=O)(=O)C3)nc3ccccc3c2=O)c1C (stereo not given)	x	i	3	x	x	x	0	-2
COC(=O)c1cccc2c1-c1ccccc1/C2=N\NC(N)=O	19	i	2	-5	0	5	3	-2
CC(C)C(=O)Nc1ccc(C(=O)Nc2ccc(S(=O)(=O)N3CCOCC3)cc2)cc1	x	i	-2	-1	-36	14	1	-9
COc1cccc(CC(NC(C)=O)C(=O)NC2CCN(c3nnnn3-c3ccccc3)CC2)c1OC (stereo not given)	1	i	3	-5	-14	-7	4	x
CCOC(=O)C1(C)CCCN(C(=O)c2c(F)ccc(C)c2F)C1 (stereo not given)	-78	x	3	x	x	x	-2	-3
CCOC(=O)CSc1nnc(CNC(=O)c2ccco2)n1-c1ccc(F)cc1	2	i	1	-11	-8	-15	3	-9
Cc1csc(NC(=O)c2ccc(S(C)(=O)=O)cc2)n1	-2	i	1	-4	-5	-2	0	x
CCOc1ccccc1N(CC(=O)N1CCOCC1)S(=O)(=O)c1ccccc1	-69	i	-3	-5	-6	-2	0	-5
CC1=C(CC(=O)c2ccc(Cl)cc2)C(=O)c2ccccc2C1=O	7	i	19	-4	41	15	-7	-25
CC(Sc1ccc(Cl)cc1)C(=O)NNC(=O)c1csc(N2CCOCC2)n1 (stereo not given)	-9	i	6	13	-10	-11	1	-2
OCCC1CN(C/C(Cl)=C/c2ccccc2)CCN1C1CCCC1 (stereo not given)	-1	i	4	0	59	-3	3	x
COc1cccc(C(O)c2ncc(-c3cccc(C(F)(F)F)c3)[nH]2)c1 (stereo not given)	1	x	0	x	x	x	6	-27
Cc1cc(C2C(=O)CC(=O)CC2c2ccccc2)on1 (stereo not given)	x	i	4	1	-6	13	-3	-9
CC1(C(=O)Nc2cccc(NS(C)(=O)=O)c2)Cc2c(-c3ccc(C(N)=O)cc3)ccnc2O1 (stereo not given)	-8	x	0	x	x	x	-5	20
COc1ccc(NC(=O)CC2C(=O)N(c3ccccc3)C(=O)N2CCc2cccs2)cc1 (stereo not given)	x	i	3	-5	-2	6	6	-1
